Bioassay records deposited in PubChem by several laboratories.
RGS16-Gao HTS: modulators of RGS16 binding to Galphao, primary screen, biochemical, human proteins, multiplexed bead flow cytometry; Regulator of G-protein signaling 16 (Homo sapiens) + Guanine nucleotide-binding protein …; bead-based flow cytometry RGS16-Galphao binding, fluorescence; actives lie on both sides; binding response (% of control), % at 10 µM; 220,000 compounds, 0.38% hits; AID 1441, 2008;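 active means below 25% or above 175%, edge rows of some plates excepted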;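 further: Galphao activated by GDP with aluminum fluoride before binding; 100% = wells without compound and 0% = beads without RGS; some results beyond the cut were filed as inactive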
Target sequence (O15492 whole entry, looked up): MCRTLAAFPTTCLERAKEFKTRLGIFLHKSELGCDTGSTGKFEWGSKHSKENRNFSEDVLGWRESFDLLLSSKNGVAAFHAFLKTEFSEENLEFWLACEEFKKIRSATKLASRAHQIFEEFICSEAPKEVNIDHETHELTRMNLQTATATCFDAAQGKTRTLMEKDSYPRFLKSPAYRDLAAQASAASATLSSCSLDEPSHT
Target sequence (P09471 whole entry, looked up): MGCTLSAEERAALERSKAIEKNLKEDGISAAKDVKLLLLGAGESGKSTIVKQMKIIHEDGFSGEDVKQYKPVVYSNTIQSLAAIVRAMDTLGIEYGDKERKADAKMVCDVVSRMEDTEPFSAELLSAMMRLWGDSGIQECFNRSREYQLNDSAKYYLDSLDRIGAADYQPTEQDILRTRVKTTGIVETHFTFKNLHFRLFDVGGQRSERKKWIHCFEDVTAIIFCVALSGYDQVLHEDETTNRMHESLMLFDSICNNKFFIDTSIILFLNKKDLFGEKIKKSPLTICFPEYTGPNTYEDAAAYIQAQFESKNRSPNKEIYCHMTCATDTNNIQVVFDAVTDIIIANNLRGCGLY
PKD1 inh: inhibitors of human PKD1 kinase, biochemical, fluorescence polarization; Serine/threonine-protein kinase D1 (Homo sapiens), Q15139; PKD1 kinase fluorescence polarization assay; inhibition, %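 (about 10 µM by stock and volumes)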; 200,000 compounds, 0.056% hits;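 active means inhibition of 50% or more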;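 further: controls were vehicle for no effect and a reference inhibitor for full effect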
HSV augment: enhancers of HSV replication in host cells, fold increase, host cell viability; HSV replication augmentation in cells; maximum fold increase; 220,000 compounds, 0.005% hits; AID 1956, 2009;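 active means peak rise of 1.5-fold or more in the series; tested in PC3 cells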;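 further: first round at 10 µM; read as green reporter fluorescence; hits show the peak of a series up to 25 µM; 1 = signal of infected wells without compound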
INS promoter inh: inhibitors of insulin promoter-driven GFP, primary screen, imaging, TRM-6 cells (human fetal islet line), eGFP reporter, cell count. reporter expression induced with tamoxifen. inhibition, % at 2 µM. 130,000 compounds, 0.9% hits;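 active means inhibition above the mean plus 3 SD, with well images judged a real hit on visual review, cut at about 60% in these data, passing the limit was not always enough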
GALR2 agonist: GALR2 receptor agonists, primary screen, cell-based. activation, %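 (tested at 5 µM)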. GALR2-expressing cells, agonist activation read-out. 140,000 compounds, 0.48% hits. Galanin receptor type 2 (Homo sapiens), O43603;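 active means above mean plus 3 SD of all compounds, about 5% in these data, not always enough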;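 further: 0% = vehicle buffer wells and 100% = reference agonist at full effect; tested in CHO reporter cells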
Target sequence (O43603 whole entry, looked up): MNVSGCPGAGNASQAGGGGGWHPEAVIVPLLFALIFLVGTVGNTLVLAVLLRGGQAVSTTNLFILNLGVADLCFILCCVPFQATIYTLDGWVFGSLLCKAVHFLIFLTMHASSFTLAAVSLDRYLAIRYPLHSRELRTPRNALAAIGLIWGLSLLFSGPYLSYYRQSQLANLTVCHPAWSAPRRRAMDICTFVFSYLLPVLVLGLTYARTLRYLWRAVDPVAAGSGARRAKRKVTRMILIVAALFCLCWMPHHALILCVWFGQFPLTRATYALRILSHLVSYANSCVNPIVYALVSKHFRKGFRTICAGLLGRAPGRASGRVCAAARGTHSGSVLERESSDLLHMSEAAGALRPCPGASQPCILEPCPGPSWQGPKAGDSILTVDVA
INS promoter inh cell count: also measured in INS promoter inh; calls as there; normalized cell count, %; measured here: cell count, toxicity; reference of the scale not given here;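 cells exposed to compound for 48 h; stained nuclei by imaging scaled within each plate; lower means fewer cells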
HSV augment primary fold: recorded beside HSV augment, whose call it bears; fold increase; compound at 10 µM; measured here: primary screen fold increase 10 uM; tested in PC3 cells;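 GFP signal in the first replicate; 1 = infected wells without compound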
The depositor's hits bear a star; i = inactive; . = not tested or not shown. Rows are unselected; any-hit rate near 1.3%.

SMILES	RGS16-Gao HTS	PKD1 inh	HSV augment	HSV augment primary fold	INS promoter inh	INS promoter inh cell count	GALR2 agonist
CSCCC1NC(=O)N(CC(=O)Nc2cccc3ccccc23)C1=O (stereo unspecified)	101	-9	i	0.97	53	127	-0.4
O=C1NC(N2CCOCC2)=N/C1=C/c1ccc2c(c1)OCO2	100	-6	i	0.94	-20	119	.
O=C(Nc1ncc(Cc2ccc(SC(F)F)cc2)s1)c1ccccc1	58	0	.	.	-6	45	-0.6
Cc1cccc(OCC(=O)N2CCCc3ccccc32)c1	105	6	i	0.91	.	.	.
Cc1cc(C(=O)Nc2ccccc2C(=O)O)ccc1NC(=O)COc1cccc([N+](=O)[O-])c1	108	-1	i	0.97	.	.	.
S=c1[nH]nc(-c2ccc3c(c2)OCO3)n1-c1ccccc1	100	4	i	1.1	.	.	1.0
COc1ccccc1C(=O)Nn1c(-c2cccs2)nc2ccccc2c1=O	103	3	i	0.95	-3	150	0.1
Cc1ccc2cc(C)c(NCCO)nc2c1	227	-5	i	1	46	152	-1.7
Cc1ccnc(NS(=O)(=O)c2cccc3nsnc23)c1	84	-9	i	0.95	.	.	-1.5
CCCCNC(=O)N1CCN(c2ncccn2)CC1	95	-2	i	0.93	.	.	.
O=C1CS/C(=C\S(=O)(=O)c2ccc(Cl)cc2)N1	98	-7	i	0.8	18	73	-0.9
Cc1cc(-c2nc3cccnc3s2)ccc1NS(=O)(=O)c1ccc2c(c1)OCCO2	102	-12	i	1	.	.	0.9
O=S(=O)(c1cccc(Cl)c1Cl)N1CCCCC1	103	-6	i	0.88	19	121	-2.0
O=C1c2ccccc2C(Nc2ccc(S(=O)(=O)N3CCOCC3)cc2)N1c1cccnc1 (stereo unspecified)	42	-6	i	1.1	.	.	-1.2
COc1ccc(/C=C2/N=C(SCC(=O)Nc3cc(C)on3)N(c3ccccc3)C2=O)cc1	88	-11	i	0.89	-7	103	2.0

Overlap with the part before: 4 entries; new compounds follow.
SMILES	RGS16-Gao HTS	PKD1 inh	HSV augment	HSV augment primary fold	INS promoter inh	INS promoter inh cell count	GALR2 agonist
Cc1cc(-c2nc3cccnc3s2)ccc1NS(=O)(=O)c1ccc2c(c1)OCCO2	102	-12	i	1	.	.	0.9
O=S(=O)(c1cccc(Cl)c1Cl)N1CCCCC1	103	-6	i	0.88	19	121	-2.0
O=C1c2ccccc2C(Nc2ccc(S(=O)(=O)N3CCOCC3)cc2)N1c1cccnc1 (stereo unspecified)	42	-6	i	1.1	.	.	-1.2
COc1ccc(/C=C2/N=C(SCC(=O)Nc3cc(C)on3)N(c3ccccc3)C2=O)cc1	88	-11	i	0.89	-7	103	2.0
c1nnc(-c2ccc3c(c2)OCO3)o1	99	-10	i	0.95	.	.	.
COc1cc(NC(=O)CN(c2ccc(C)cc2)S(=O)(=O)c2c(C)nn(C)c2C)cc(OC)c1	98	-2	i	1	.	.	0.5
CCCCSc1nnc([C@H](C)NC(=O)OC(C)(C)C)o1	122	-6	i	1.1	-14	181	-1.6
Cc1c(NC(=O)C(C)OC(=O)c2ccc(Cl)nc2)c(=O)n(-c2ccccc2)n1C (stereo unspecified)	101	-15	i	0.91	14	118	0.0
Cc1cccc(C)c1-n1nnnc1C1(Nc2ccccc2)CCCCC1	104	4	.	.	-4	88	1.0
O=C(O)C1=C[C@H](C2CC2)C[C@H](OCCCCO)O1	98	0	i	0.84	.	.	.
CCC1(C)Cc2c(sc3nc4n(c(=O)c23)CCCS4)CO1 (stereo unspecified)	.	-6	i	0.99	19	93	-1.7
CCOc1ccc2nc(N3C(=O)/C(=C/c4ccccc4)NC3=S)sc2c1	126	-7	i	1.1	.	.	-0.7
COc1cc([N+](=O)[O-])cc(/C=N/NC(=O)C(C)Nc2ccccc2C)c1O (stereo unspecified)	100	2	i	0.86	-13	210	-2.2
CN1c2ccccc2N(C)C1(C)c1ccccc1	93	-10	i	1	0	114	-0.9
C=CCNC(=O)COC(=O)c1cccnc1Nc1ccccc1F	104	2	i	0.98	.	.	.
CCN(Cc1ccccc1)C(=O)c1ccccc1C	101	4	i	0.97	47	136	-3.6
CC(C)(C)c1ccc(C(=O)N/N=C/c2ccc(OCCCF)cc2)cc1	94	-1	i	0.93	.	.	.
COc1ccc(C2/C(=C(/O)c3ccc(C)cc3)C(=O)C(=O)N2c2ccccn2)cc1OC (stereo unspecified)	97	.	i	0.9	.	.	.
COCCn1c(=NC(=O)c2ccc(S(=O)(=O)N3CCCc4ccccc43)cc2)sc2cc(S(C)(=O)=O)ccc21	106	1	i	0.87	-56	106	0.1
O=c1c2c(-c3ccccc3)csc2ncn1/N=C/c1cccc([N+](=O)[O-])c1O	102	-2	i	0.85	.	.	.
O=C(/N=C1\NC(=O)C(F)(C(F)(F)F)S1)NC1CCCCC1 (stereo unspecified)	83	.	i	0.96	.	.	.
O=c1c2cc(NC(=S)NC3CCCC3)ccc2nc2n1CCCCC2	99	-3	i	0.93	.	.	.
COC(=O)c1c(NC(=O)CSc2nnnn2-c2ccccc2)sc2c1CCC(C)C2 (stereo unspecified)	85	-5	i	1	18	129	-0.9
C/C(=C\c1ccccc1)C(=O)c1c(C)cc(C)[nH]c1=O	192	-5	i	0.89	-45	57	.
Cc1ccn(CC(=O)O)c(=O)c1	94	3	i	0.84	.	.	-0.6
CSc1nnc2c(n1)OC(c1cn(C)c3ccccc13)N(C(C)=O)c1ccccc1-2 (stereo unspecified)	101	1	i	0.99	29	68	0.0
Cc1cc(OCCCC(=O)NCCN2C(=O)S/C(=C\c3cccnc3)C2=O)ccc1Cl	83	-6	i	0.82	-16	90	-3.0
COc1cc(CCC(=O)NNC(=O)c2ccc(C)cc2)cc(OC)c1OC	95	-8	i	0.81	.	.	.
CCCC(=O)Nc1ccc(Cl)c(NC(=S)NC(=O)c2cc3ccccc3o2)c1	110	2	i	0.98	-17	80	-1.2
Cc1ccc(-n2c(-c3cnccn3)n[nH]c2=S)cc1	96	4	i	1	.	.	.
CCCCCNC(=O)C1CCC(Cn2c(=S)[nH]c3ccccc3c2=O)CC1 (stereo unspecified)	101	0	i	0.85	29	96	.
COC(=O)c1c(C)[nH]c(C(=O)/C=C/c2ccc(Cl)cc2)c1C	102	1	i	0.71	29	138	0.1
NC(=O)c1ccc(-n2nnnc2SCc2ccc(F)cc2)cc1	101	-5	i	0.98	.	.	-2.7
COC(=O)c1ccc(-n2c(C)cc(/C=N/Nc3nc(C)cc(=O)[nH]3)c2C)cc1	95	.	i	0.89	.	.	.
CC(C)(C)C(=O)C(Cc1ccccc1Cl)n1cncn1 (stereo unspecified)	103	6	i	0.99	8	72	-1.3
COc1cc2c(cc1NC(=O)Nc1cccc(C)c1)oc1ccccc12	102	3	i	1	-24	95	-1.5
CCn1c(=O)cc(OCC(=O)N2CCCCCC2)c2ccccc21	101	-8	i	0.91	4	114	-4.1
Cc1ccc(NC(=S)N2CCC(c3ccc(C)cc3)C2)cc1 (stereo unspecified)	89	-5	i	0.94	.	.	.
COC(=O)[C@@H]1CCCN1Cc1c(C(=O)N2CCOCC2)nc2c(C)cccn12	113	-5	i	1.1	.	.	.
COC(=O)c1ccc(C)c(NC(=O)c2ccc(Cn3cc([N+](=O)[O-])cn3)o2)c1	109	0	i	1	7	111	-1.0
COc1ccc(/C=C\C(=O)NCc2ccc3c(c2)cc(C)n3C)cc1OC	23*	-7	i	1.2	2	44	-2.0
CCn1c(-c2ccc(C(C)(C)C)cc2)n[nH]c1=S	101	2	i	0.89	15	95	-1.0
COC(=O)c1ccccc1NC(=O)NC1CC1	94	-4	i	0.77	.	.	.
COc1cc(-c2cc(C(=O)Nc3ccccc3N3CCOCC3)c3ccccc3n2)cc(OC)c1OC	106	2	i	0.84	.	.	.
CN(C)C=NC(=O)c1cccn1-c1ncc(C(F)(F)F)cc1Cl	104	-1	i	0.95	.	.	.
CC(C)C[C@H](NC(=O)OC(C)(C)C)C(=O)N1CCC(C(=O)O)CC1	97	-4	i	0.97	26	210	-0.1
O=C(CCCc1ccccc1)N1CCN(c2ccc([N+](=O)[O-])cc2)CC1	109	-9	i	0.97	-223	122	-1.9
CC1CCCCN1C(=O)c1cc2nc(-c3ccccc3)cc(-c3ccccc3)n2n1 (stereo unspecified)	97	1	i	0.9	15	84	1.6
Cc1ccc(/C=C2\SC(=S)N(CCCC(=O)Nc3ccccn3)C2=O)cc1	95	-13	i	1.1	51	26	-0.3
CCOC(=O)Cc1csc(NC(=O)C(C)(C)C)n1	102	0	i	1.1	-39	159	6.8*
Cc1cc(C)nc(SCc2nnc(SCC(=O)NCc3ccco3)n2-c2ccccc2)n1	101	-11	i	0.92	35	52	-1.8
FC(F)(F)c1nc(-c2ccccc2)ncc1-c1nnnn1-c1ccccc1	108	.	i	0.87	.	.	.
O=c1[nH]c(CSc2ccccn2)nc2ccccc12	94	-9	.	.	-15	97	.
O=C1CC(C(=O)Nc2ccc(Cl)cc2[N+](=O)[O-])C2(CCCCC2)O1 (stereo unspecified)	97	2	i	1.1	16	96	0.8
Cc1nc(N2CCC(C)CC2)c2c(C)c(C(=O)O)sc2n1	101	-6	i	0.87	31	84	-1.4
CCOC(=O)c1c(NC(=O)C2C3C=CC(C3)C2C(=O)O)sc2c1CCCC2 (stereo unspecified)	82	-1	i	0.88	-5	65	.
Clc1ccccc1OCc1nc(-c2ccncc2)no1	91	-1	i	0.68	17	145	-1.3
COc1cccc(NC(=O)Cc2c(O)c3ccccc3[nH]c2=O)c1	98	-9	i	1	39	81	-1.4
NC(=S)NNc1ccnc2cc(Cl)ccc12	94	0	i	0.89	31	130	.
O=C(Cn1c(=S)nc2ccccn21)N1CCc2ccccc2C1	103	-5	i	1.1	-246	80	-2.6
CCOC(=O)Cc1nc2nc(C)cc(C)n2n1	99	4	i	1	.	.	.
Cc1ccc(C)c(Cn2c(O)c(N=NC(=S)Nc3ccccc3F)c3ccccc32)c1	98	-5	i	1.1	.	.	.
CN(C(=O)CSc1nc(N)c2c3c(sc2n1)CSC(C)(C)C3)c1ccccc1	72	5	.	.	.	.	0.1
COc1ccc(N=C2NC(=O)C(CC(=O)NCCc3ccc(OC)c(OC)c3)S2)cc1 (stereo unspecified)	104	-6	i	0.74	47	110	.

3 entries from above, ordered by the number in PKD1 inh, rising.
| structure | PKD1 inh |
| --- | --- |
| Cc1ccnc(NS(=O)(=O)c2cccc3nsnc23)c1 | -9 |
| O=C1c2ccccc2C(Nc2ccc(S(=O)(=O)N3CCOCC3)cc2)N1c1cccnc1 (stereo unspecified) | -6 |
| CCOC(=O)Cc1nc2nc(C)cc(C)n2n1 | 4 |

More structures.
SMILES	RGS16-Gao HTS	PKD1 inh	HSV augment	HSV augment primary fold	INS promoter inh	INS promoter inh cell count	GALR2 agonist
O=C(CNC(=O)c1ccco1)OCN1C(=O)c2ccccc2C1=O	105	0	i	0.88	.	.	-0.7
COc1ccccc1C(=O)C1CCCN(Cc2ccc3c(c2)OCCO3)C1 (stereo unspecified)	106	.	i	1.1	.	.	.
O=C(Cc1c[nH]c2ccccc12)NCc1ccc(Cl)cc1Cl	99	-9	i	1	0	174	-1.9
COC(=O)CNc1nc(C2CC2)nc2c1nnn2Cc1ccccc1Cl	103	-7	i	0.73	36	39	-1.0
COc1cccc2cc(C(=O)OC3CCN(C)CC3)c(=O)oc12	112	-4	i	0.92	.	.	-1.3
COCCNC(=O)Cn1cc(C(=O)c2ccco2)c2ccccc21	102	-8	i	0.92	-93	74	.
O=C(NC1CCCCC1)c1ccc(S(=O)(=O)c2ccccc2)cc1	108	-11	i	0.96	-36	84	.
CCCc1cc(=O)n2[nH]c(C)cc2n1	106	4	i	1	-54	179	-1.0
Cc1ccc(CCNC(=O)C2CCCN(S(=O)(=O)c3c(C)noc3C)C2)cc1 (stereo unspecified)	96	-3	i	1	.	.	0.5
CSc1ccccc1NC(=O)c1ccoc1C	103	-1	i	1.1	-10	125	-1.3
O=C(c1cc(N2C(=O)C3C4CCC(C4)C3C2=O)ccc1Cl)N1CCN(c2ccc(F)cc2)CC1 (stereo unspecified)	102	-1	i	0.88	41	73	0.4
O=C(CCC1COc2ccccc2O1)NC1CCCCC1 (stereo unspecified)	101	-2	i	0.78	30	139	-0.8
Cc1nc(S(=O)(=O)c2cccc(Cl)c2)nc2c1CCC2	100	7	.	.	.	.	-2.7
